Source: PubChem
RanGTP-Impb inh: inhibitors of RanGTP-importin-beta interaction, primary screen, biochemical, FRET, CFP-Ran, YFP-importin-beta, homogeneous. cell-free CFP-Ran/YFP-importin-beta FRET ratio. inhibition, % (concentration not given with the values). 1.1% of 300,000 active. AID 2216, 2009. Ran GTPase (GTP-bound) - importin-beta complex;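 active = most replicates above 15%; inconclusive = exactly half above 15%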;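 note: 0% = DMSO wells and 100% = Ran loaded with GDP instead of GTP; wells of about 40 µL received 100 nL stock; the first replicate is given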
E coli growth: E. coli growth inhibition, primary screen, OD600; 0.21% of 330,000 active; OD600 absorbance (no concentration beside the values); Escherichia coli growth, 23 h; stronger effect = lower value;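 active = OD600 absorbance below the run mean of sample wells minus 3.6 SD, in any replicate, cut at about 0.56 in these data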;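 note: stock transfer was 300 nL into about 60 µL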
FGF22 binding: binders of human FGF22 protein, primary screen, FGF22 synaptogenesis inhibitor project, biophysical, thermal shift, single point. 1.5% of 340,000 active. Fibroblast growth factor 22 (Homo sapiens), Q9HCT0. calls only at 9.99 µM. recombinant FGF22 thermal shift, SYPRO orange fluorescence; percent of sucrose octasulfate shift, DMSO zero;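 active = melting point raised past a set limit in the mean and every replicate; inconclusive = no clear call; three in four hits are not shown here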
Target sequence (Q9HCT0 whole entry, looked up): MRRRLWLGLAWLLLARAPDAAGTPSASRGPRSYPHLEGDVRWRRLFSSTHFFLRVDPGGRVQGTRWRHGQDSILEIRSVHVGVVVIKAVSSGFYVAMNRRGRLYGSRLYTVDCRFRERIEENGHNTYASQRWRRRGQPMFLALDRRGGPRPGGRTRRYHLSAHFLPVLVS
Vif TR-FRET: inhibitors of Vif binding to APOBEC3G peptide, primary screen, biochemical, TR-FRET, GST-Vif 1-94, biotin-A3G peptide, dose response retest (AID 1117319) | TR-FRET GST-Vif / biotin-A3G peptide binding; higher % means a stronger effect; test concentration not given here; strong numbers were not always called active | inhibition, %; hits with a dose series show IC50 in µM | 0.57% of 260,000 active;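 active = above the screen mean plus three standard deviations and confirmed in dose response; inconclusive = results disagree or hit not tested in dose response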;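 note: Vif residues 1-94 fused to GST binding biotinylated APOBEC3G peptide 110-148; 0% = full assay without inhibitor and 100% = GST in place of GST-Vif; retest series ran down from 100 µM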
UCH37 inh: inhibitors of human UCH37 deubiquitinase, primary screen, biochemical, Ub-AMC cleavage, fluorescence; 0.33% of 330,000 active; inhibition, % (concentration not given with the values); AID 588478, 2011; Ubiquitin carboxyl-terminal hydrolase isozyme L5 (Homo sapiens), Q9Y5K5; purified proteasome/UCH37;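 active = mean of two replicates above 20%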;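 note: 0% = compound-free wells with enzyme and 100% = wells lacking proteasome; stock transfer was 100 nL into about 20 µL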
Target sequence (Q9Y5K5 whole entry, looked up): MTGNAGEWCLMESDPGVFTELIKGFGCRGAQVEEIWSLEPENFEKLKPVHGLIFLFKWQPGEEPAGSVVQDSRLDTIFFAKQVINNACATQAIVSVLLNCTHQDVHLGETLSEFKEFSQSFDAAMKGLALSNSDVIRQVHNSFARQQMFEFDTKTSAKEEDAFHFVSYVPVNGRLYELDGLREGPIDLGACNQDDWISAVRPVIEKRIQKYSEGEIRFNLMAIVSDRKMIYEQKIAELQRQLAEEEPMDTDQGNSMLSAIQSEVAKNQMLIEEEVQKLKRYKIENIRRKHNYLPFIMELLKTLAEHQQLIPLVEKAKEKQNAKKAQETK
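Reagent: Ub-AMC substrate; assay system: Proteasome-associated human UCH37 deubiquitinase; controls: no-proteasome and no-compound wells; read-out: % inhibition of Ub-AMC cleavage fluorescence; timing: 30 min preincubation with enzyme, 25 min cleavage at room temperature; signal: AMC fluorescence from Ub-AMC cleavage, excitation 355 nm, emission 460 nm; buffer or medium: Tris-HCl pH 7.4 plus ovalbumin, ATP-MgCl2, DTT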
AF4-AF9 inh: inhibitors of AF4 peptide binding to AF9, primary screen, biochemical, AlphaScreen, biotin-AF4 peptide, FLAG-AF9, single point; inhibition, % at 10 µM; Protein AF-9 (Homo sapiens), P42568; 0.47% of 350,000 active;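 active = every replicate reaching a set inhibition limit, whatever the replicate mean, cut at about 25% in these data; inconclusive = mean inhibition reaches that limit but some replicates miss it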;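 note: 0% = plate neutral control median and 100% = total signal loss; the record names both 10 and 1 µM as test concentration; the first replicate is given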
Target sequence (P42568 whole entry, looked up): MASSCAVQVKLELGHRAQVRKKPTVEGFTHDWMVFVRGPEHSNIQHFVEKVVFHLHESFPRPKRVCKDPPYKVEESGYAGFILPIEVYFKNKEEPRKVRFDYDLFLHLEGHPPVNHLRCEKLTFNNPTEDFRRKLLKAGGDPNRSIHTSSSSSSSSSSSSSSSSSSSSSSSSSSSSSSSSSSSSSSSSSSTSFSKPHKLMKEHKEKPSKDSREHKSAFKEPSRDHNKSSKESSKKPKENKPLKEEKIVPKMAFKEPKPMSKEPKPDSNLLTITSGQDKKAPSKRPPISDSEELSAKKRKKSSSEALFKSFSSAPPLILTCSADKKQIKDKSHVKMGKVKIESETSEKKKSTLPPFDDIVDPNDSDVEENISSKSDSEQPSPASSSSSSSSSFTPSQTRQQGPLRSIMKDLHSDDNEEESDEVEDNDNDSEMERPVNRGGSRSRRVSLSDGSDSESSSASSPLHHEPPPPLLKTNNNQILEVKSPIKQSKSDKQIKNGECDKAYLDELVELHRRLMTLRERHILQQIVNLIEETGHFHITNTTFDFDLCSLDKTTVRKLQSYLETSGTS
HNF4A DNA FP: change in binding of human HNF4A to DNA, primary screen, biochemical, fluorescence polarization, FITC-DNA | activity change, % at 10 µM | 0.3% of 360,000 active | 1 h | Hepatocyte nuclear factor 4-alpha (Homo sapiens), P41235 | AID 1224865, 2016; in the data active = activity change above about 30%, passing the limit was not always enough;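 note: controls were the assay level and a saturating level of protein; the project sought stronger binding though the title names inhibitors; some compounds called inactive have numbers as strong as hits; positive values seem to mean higher polarization but the record does not say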
The depositor's hits bear a star; i = inactive; ? = inconclusive; . = not tested or not shown; & = joins results of further samples. A portion of the library; count on the stated rates, not on these rows.

SMILES	RanGTP-Impb inh	E coli growth	FGF22 binding	Vif TR-FRET	UCH37 inh	AF4-AF9 inh	HNF4A DNA FP
Cc1cc(OCC(O)CN2CCN(c3ccccn3)CC2)cc(C)c1Cl (stereo not given)	-3.9	0.59	i	-4%	1.2	3.7	1.0
COc1cc(OC)c(S(=O)(=O)Nc2ccccc2N2CCOCC2)cc1NC(C)=O	-2.0	0.69	i	6%	5.2	-0.7	0.3
COC(=O)c1[nH]c2c(c1C)C(=O)CC(c1ccc(C)cc1)C2 (stereo not given)	6.8	0.79	.	-6%	1.3	.	2.0
CCOC(=O)C1CCN(c2nc3ccccc3nc2C(C#N)C(=O)OC(C)C)CC1 (stereo not given)	6.1	0.76	.	0%	-34	.	79
COc1cc(OC)cc(-c2c(-c3cccs3)c3cc(-c4ccc(C(N)=O)cc4)ccc3n2C)c1	.	0.71	.	.	-8.6	.	3.1
COC(=O)c1ccc(NS(=O)(=O)c2cc(C)ccc2OC)cc1	0.1	0.71	.	2%	2.3	.	-0.5
CC(/C=N/NC(=O)c1ccc2nc(C)[nH]c2c1)=C\c1ccccc1	-2.6	.	.	13%	.	.	6.3
CSCC[C@H](NC(=O)c1ccc(Cl)c([N+](=O)[O-])c1)c1nc2ccccc2[nH]1	7.8	0.64	.	-2%	1.1	.	-2.5
O=C(N/N=C\c1ccc(CNS(=O)(=O)c2ccccc2)o1)C(=O)Nc1ccc(F)cc1	2.6	.	i	.	.	-3.5	2.7
O=C(NCCOc1ccccc1)C1CCC(=O)N(CCc2ccccn2)C1 (stereo not given)	-0.1	0.67	i	.	-1.8	1.3	-0.5
Cc1ccc(-c2noc(CCC(=O)NC3CCCC3)n2)cc1	-3.8	0.67	i	.	1.4	-11	-0.5
C=CCSc1cc(C)nc2c(-c3ccccc3)c(C)nn12	-0.2	0.66	i	-1%	8.0	.	-0.6
CN(C)/C=C1\SC(=S)N(c2ccc(F)cc2)C1=O	-2.1	0.7	i	3%	8.3	.	4.9
COc1ccccc1C(=O)NCC(=O)OCC(=O)N(CC(C)C)c1c(N)n(Cc2ccccc2)c(=O)[nH]c1=O	0.9	0.67	i	3%	4.2	-5.1	1.7
Cc1ccccc1C(=O)NC1CCN(CC(=O)NCc2cccs2)CC1	4.7	0.7	i	?	-0.2	0.6	-1.8
CCOc1ccc(NC(=O)CN(C)C(=O)c2c(C)nn(-c3ccccc3)c2Cl)cc1OCC	1.7	0.64	i	-5%	3.1	0.1	1.0
Cc1ccc(NS(=O)(=O)c2cccc(C(=O)NNC(=O)c3ccco3)c2)c(C)c1	2.4	0.68	i	-5%	2.4	0.3	-0.6
CC(C)(C)c1ccc(C(=O)CCC(=O)OCC(=O)NCCc2ccc(S(N)(=O)=O)cc2)cc1	.	0.7	i	2%	0.6	0.1	1.2
CCOC(=O)N1CCN(C(=O)C(CC(C)C)NS(=O)(=O)c2ccc3c(c2)oc(=O)n3C)CC1 (stereo not given)	4.9	0.67	.	1%	-0.1	.	-1.0
CCCCCc1nnc(NC(=O)CS(=O)(=O)Cc2ccccc2)s1	-4.8	0.72	.	?	6.1	.	2.0
COc1ccccc1-c1noc(-c2ccccc2C(=O)Nc2cccnc2)n1	1.0	0.74	.	0%	2.9	.	-2.5
CC(Oc1ccc2ccccc2c1)C(=O)NNC(=O)Nc1ccccc1 (stereo not given)	-1.8	0.71	i	.	4.7	-1.5	-0.9
CCN(CC(=O)Nc1ccc2c(c1)OCCO2)C(=O)c1ccc(C)c(S(=O)(=O)N2CCOCC2)c1	-3.3	0.66	i	6%	-0.3	-13	-4.2
O=C(c1ccc2oc(CCCc3ccccc3)nc2c1)N1CCCC1	-0.2	0.7	i	2%	3.8	0.5	-1.6
CCc1ccc(/C=N/NC(=S)NCCc2ccccc2)cc1	1.5	.	.	-5%	.	.	-0.5

The list continues.
SMILES	RanGTP-Impb inh	E coli growth	FGF22 binding	Vif TR-FRET	UCH37 inh	AF4-AF9 inh	HNF4A DNA FP
O=C(COc1cccnc1[N+](=O)[O-])N1CCN(S(=O)(=O)c2ccccc2)CC1	?	0.68	.	-5%	4.9	.	-4.1
COC(=O)CCC(=O)Nc1ccc(OC)cc1	0.0	0.73	.	?	2.6	.	-1.7
O=C(NCCCn1ccnc1)c1[nH]c(C(F)(F)F)nc1-c1ccccc1	.	.	i	.	.	-1.3	-1.7
CCC(C(=O)N1CCc2cc(OC)c(OC)cc2C1)c1ccccc1 (stereo not given)	1.4	0.7	.	1%	7.0	.	-0.9
OC(CN1CCCCC1)Cn1c(C(F)(F)F)nc2ccccc21 (stereo not given)	2.4	0.72	.	4%	2.4	.	-0.6
Nc1nncn1C(=O)c1cccs1	.	0.68	.	4%	4.4	.	0.9
CC(=O)C[C@H](O)CC(=O)[C@H]1OC(=O)[C@H](C)CCCCc2ccccc21	.	0.72	i	4%	4.8	-5.3	-2.3
CS(=O)(=O)N(CC(=O)Nc1ccc(F)c(F)c1)c1cccc([N+](=O)[O-])c1	-0.7	0.67	.	.	3.3	.	-3.2
O=C(CSc1ccccc1)Nc1ccc(-c2nc3ccccc3[nH]2)cc1	3.2	.	.	-36%	.	.	16
COc1ccc2nc(SCC(=O)Nc3ccc(S(=O)(=O)Nc4onc(C)c4C)cc3)[nH]c2c1	-0.5	0.77	.	6%&-9%	4.4	.	-4.2
Cc1ccccc1/C=N/Nc1nc2ccccc2[nH]1	-4.0	.	i	?	.	4.7	2.8
COc1ccc(NC(=O)c2cccnc2N2CCOCC2)cc1	-0.6	0.71	i	13%	2.9	-1.5	1.9
COC(C(=O)N1CCC(CCC(=O)Nc2ccccc2)CC1)c1ccccc1 (stereo not given)	4.7	0.71	i	.	1.4	2.4	0.1
O=S1(=O)C=C(N2CCOCC2)c2ccccc21	7.2	0.66	.	0%	5.5	.	-2.8
CCN(CC)S(=O)(=O)c1cccc(C(=O)NC(C(=O)NCCc2ccccn2)C(C)C)c1 (stereo not given)	.	0.72	i	3%	1.6	-0.7	0.6
FC(F)(F)C1=CC(c2ccc(Br)cc2)=NCCN1	-3.1	0.71	.	0%	8.2	.	-0.1
CC12CC3CC1C(C(=O)O2)C3C(=O)O (stereo not given)	.	.	i	6%	.	-1.8	0.6
CSCCC(NC(=O)OC(C)(C)C)C(=O)NC(CC(C)C)C(N)=O (stereo not given)	0.9	0.67	.	-5%	0.4	.	-4.3
COC(=O)c1sccc1NC(=O)CSc1ccccc1NS(=O)(=O)c1ccc(F)cc1	6.2	0.77	.	-10%	5.5	.	-2.6
O=C(N/N=C/c1ccc(Br)s1)c1cccnc1	0.3	.	.	2%	.	.	2.2
CC(=O)c1ccc(OCc2cc(C(=O)N3CCC(c4ccncc4)CC3)no2)cc1	1.2	0.69	i	.	2.3	3.2	0.8
CCN1C(=O)CC(NNC(=O)c2ccc(Cl)cc2)C1=O (stereo not given)	-6.7	0.7	.	6%	0.2	.	2.4
CC1=C(C(=O)OCC2CCCO2)C(c2ccc(C)cc2)C2=C(CCCC2=O)N1 (stereo not given)	1.8	0.71	i	-7%	-70	-4.7	-3.5
COc1ccccc1CCCNC(=O)C1CCC(=O)N(Cc2ccccc2F)C1 (stereo not given)	1.4	0.72	i	.	2.2	6.2	2.4
COc1ccc(C(=O)COc2ccc3ccc(=O)oc3c2)cc1	0.8	0.69	i	-11%	-8.2	-0.7	-2.9

Further results.
SMILES	RanGTP-Impb inh	E coli growth	FGF22 binding	Vif TR-FRET	UCH37 inh	AF4-AF9 inh	HNF4A DNA FP
CC1(C)Cc2c(C#N)c(NCc3ccco3)nc(-c3ccco3)c2CO1	-2.7	0.74	.	?	-42	.	3.1
Cc1onc(-c2ccccc2Cl)c1C(=O)N1CCCCCC1	0.2	0.66	i	.	0.1	0.3	2.8
O=C(CCl)NN1C(=O)NC(c2ccccc2)(c2ccccc2)C1=O	0.3	0.66	i	.	4.3	0.2	3.1
COc1ccc(S(=O)(=O)Nc2ccc(O)c(Sc3ncn[nH]3)c2)cc1	1.5	0.66	.	7%	1.8	.	-0.9
O=c1c2sc3nc(N4CCOCC4)c4c(c3c2ncn1-c1ccccc1)CCCC4	-1.4	0.7	i	4%	-24	-1.3	-0.4
O=C(COC(=O)Cc1c[nH]c2ccccc12)NC1CCCCC1	-2.3	0.72	i	.	3.4	-1.2	-2.4
C/C(CC(=O)Nc1cccc2c1CCCC2)=N\NC=O	-6.9	.	i	.	.	1.6	-0.1
CC[C@@H](C)[C@@H]1CN([C@@H](CN2CCC[C@H]2CN2C(N)=NC[C@H]2CC(C)C)C(C)C)C(=N)N1CCCC1CCCC1	.	0.63	i	10%	3.2	8.4	4.7
O=C(NC1CCCCCCC1)c1ccc(F)c(S(=O)(=O)N2CCOCC2)c1	.	0.68	i	.	-2.8	-1.6	3.1
O=C(O)CCCCCCCCCC(=O)c1cccs1	7.3	0.75	.	-13%	-1.2	.	2.3
Cc1nc2ccc(C(=O)N(C)Cc3ccccc3)cn2c1N(C)C(=O)CCc1ccccc1	.	.	i	.	.	-10	0.3
CC(=NCc1cccc(Cl)c1)c1nc(-c2ccco2)oc1O	-8.7	0.71	.	8%	9.9	.	-0.2
Cc1ccc(N(Cc2cc3ccc(C)cc3[nH]c2=O)S(=O)(=O)c2ccccc2)c(C)c1	11	0.74	.	.	-0.3	-0.2	0.1
CC(C)(C)c1ccc(OCC(=O)NNC(=O)Nc2ccccc2)cc1	-3.9	0.7	i	.	2.7	-0.4	-3.3
O=C(CSCc1nc2ccccc2[nH]1)N1CCN(c2cccc(Cl)c2)CC1	2.3	0.69	.	-3%&-2%	-2.0	.	0.6
COc1ccc2oc(C(=O)OCC(=O)Nc3ccc(OC)c(S(N)(=O)=O)c3)c(C)c2c1	-2.3	0.66	i	8%	-56	-0.8	1.1
COc1ccccc1NC(=O)Cn1c(=O)n2nc(C)nc2c2ccccc21	?	0.67	i	1%	2.0	-5.0	0.9
CCCCN(C(=O)CCCc1nc2ccccc2s1)c1c(N)n(CC(C)C)c(=O)[nH]c1=O	.	0.66	i	-7%	-0.5	0.8	-3.1
FC(F)(F)c1cnc2c(c1)[nH]c(=S)n2-c1ccc(Cl)cc1	3.1	0.65	i	-9%	0.2	2.4	0.4
O=[N+]([O-])c1ccc(CC(Cl)c2ccccn2)cc1 (stereo not given)	.	0.69	i	6%	2.6	0.4	3.2
CCC(C)[C@H](N)c1nnc(SCC(=O)c2ccc(Cl)cc2)o1 (stereo not given in full)	1.0	0.7	.	10%	0.4	.	2.4
O=C(NCc1ccco1)c1ccc(Cl)c(S(=O)(=O)N2CCOCC2)c1	-0.6	0.74	.	-1%	3.6	.	2.0
CC1CN2C(c3ccc([N+](=O)[O-])cc3)=CSC2=N1 (stereo not given)	-3.0	0.6	i	1%	7.6	-14	-0.7

One compound at a time (already shown). Screens in order: RanGTP-Impb inh | E coli growth | FGF22 binding | Vif TR-FRET | UCH37 inh | AF4-AF9 inh | HNF4A DNA FP
Record of CC1(C)Cc2c(C#N)c(NCc3ccco3)nc(-c3ccco3)c2CO1 → -2.7 | 0.74 | . | ? | -42 | . | 3.1
Record of COc1ccc(S(=O)(=O)Nc2ccc(O)c(Sc3ncn[nH]3)c2)cc1 → 1.5 | 0.66 | . | 7% | 1.8 | . | -0.9
Record of CC[C@@H](C)[C@@H]1CN([C@@H](CN2CCC[C@H]2CN2C(N)=NC[C@H]2CC(C)C)C(C)C)C(=N)N1CCCC1CCCC1 → . | 0.63 | i | 10% | 3.2 | 8.4 | 4.7
